# Screens as filed in PubChem.
# CBX7 AlphaScr: CBX7 inhibition, primary AlphaScreen. O95931. AlphaScreen His6-CBX7 / biotin-H3K27me3 peptide binding; stronger effect = lower value. normalised signal (fraction of DMSO) (no concentration beside the values). 66,000 compounds, 1.1% hits. AID 1224903; in the data active = normalised signal below about 0.5;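 also: 100 nL library stock added to about 20 µL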
# Target sequence (O95931 whole entry, looked up): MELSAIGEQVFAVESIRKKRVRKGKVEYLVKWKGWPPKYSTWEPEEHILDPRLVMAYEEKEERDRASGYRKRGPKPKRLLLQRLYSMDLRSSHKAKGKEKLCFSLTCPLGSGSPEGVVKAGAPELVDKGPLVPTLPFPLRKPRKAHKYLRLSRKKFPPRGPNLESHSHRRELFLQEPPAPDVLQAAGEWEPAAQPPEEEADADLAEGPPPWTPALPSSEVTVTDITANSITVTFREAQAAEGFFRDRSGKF
# CBX7 AlphaScr z-score: recorded beside CBX7 AlphaScr, whose call it bears; z-score; measured here: z-score of CBX7 signal; some inactives read as strong as hits; reference of the scale not given here;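 same signal on another scale; lower means less binding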
# The depositor's hits bear a star. This is a subset. The share of hits here may be higher or lower than overall.
# The first 25 compounds as a preview:
SMILES | CBX7 AlphaScr | CBX7 AlphaScr z-score
CCCNC(=O)c1ccc2c(c1)N(Cc1cccc(Cl)c1)C(=O)c1ccccc1S2(=O)=O | 0.92 | -0.49
COc1ccc(-n2nnc3c(=O)n(CC(=O)Nc4cccc(NC(C)=O)c4)cnc32)cc1 | 0.93 | -1.3
O=C(Nc1cccc(Cl)c1)c1cn(-c2ccc(Cl)cc2)c(=O)c2ccccc12 | 1 | 0.32
O=C(NCCCn1ccnc1)c1cc2nc3c(c(C(F)(F)F)n2n1)CCc1ccccc1-3 | 0.86 | -0.96
COc1cccc(N2C(=O)CC(N3CCN(c4ccccc4Cl)CC3)C2=O)c1 (stereo not drawn) | 1 | 0.22
O=C(Nc1ccc(Cl)c(Cl)c1)C1CC(=O)N(c2ccccc2)C1 (stereo not drawn) | 0.91 | -1.5
COCCNC(=O)c1ccc2c(c1)N=C(C)c1c(C)ccc(C)c1S2 | 0.96 | -0.62
Cc1cc(=O)n2nc(N3CCC(C(=O)N4CCOCC4)CC3)sc2n1 | 1 | 2.1
Cn1c(C2CC(=O)N(c3ccccc3)C2)nc2ccccc21 (stereo not drawn) | 0.99 | -0.44
COc1ccc(OC)c2[nH]c(=O)c(CCNC(=O)c3ccc(C)cc3)cc12 | 1 | -0.042
CCc1ccc(N(CC(=O)NCc2cccs2)S(=O)(=O)c2c(C)noc2C)cc1 | 0.93 | -1.2
COc1ccccc1-c1c(C)[nH]n2c(=O)cc(Cc3ccccc3)nc12 | 0.94 | -0.98
O=S(=O)(c1ccccc1)N1CCN(c2ccc3nnc(-c4ccc(F)cc4)n3n2)CC1 | 1.1 | 1
CCc1ncc(C(O)(c2ccccc2)c2cc(C)ccc2C)n1C (stereo not drawn) | 0.97 | -1
CN(C(=O)Cn1nc(Cc2cccnc2)c2ccccc2c1=O)c1ccc(F)cc1 | 1 | -0.0065
CCOCCCNS(=O)(=O)c1ccc2c(c1)CCN2C(=O)C1CCC1 | 1 | 0.43
CCOc1ccc2nc(N3CCCC(C(=O)NC(CC)Cc4ccccc4)C3)sc2c1 (stereo not drawn) | 1.1 | 1.5
CC1CCN(S(=O)(=O)c2ccc3ncn(CC(=O)Nc4cnc5ccccc5c4)c(=O)c3c2)CC1 | 0.96 | -0.93
O=C(NCc1cccnc1)c1ccc(C#Cc2ccccc2)o1 | 0.81 | -2.6
Cc1onc(-c2c(F)cccc2Cl)c1C(=O)Nc1ccc(OC(C)C)cc1 | 0.95 | -0.55
COc1cccc(NC(=O)CCC(=O)Nc2ccc3nc(N4CCN(C)CC4)cc(C)c3c2)c1 | 1 | 2
COCCNc1cc(C)nc2c(-c3ccc(Cl)cc3)c(C)nn12 | 1.1 | 2.6
COc1ccc(CNc2ccc3c(c2)ncn3C)cc1OC | 1 | 0.058
COc1ccc(CNC(=O)C2CCN(C(=O)c3sccc3-n3cccc3)CC2)cc1 | 0.98 | -0.5
Clc1ccc(-c2csc(Nc3ccc(Br)cc3)n2)cc1 | 0.7 | -4.9

# This part in full, repeating the preview:
SMILES | CBX7 AlphaScr | CBX7 AlphaScr z-score
CCCNC(=O)c1ccc2c(c1)N(Cc1cccc(Cl)c1)C(=O)c1ccccc1S2(=O)=O | 0.92 | -0.49
COc1ccc(-n2nnc3c(=O)n(CC(=O)Nc4cccc(NC(C)=O)c4)cnc32)cc1 | 0.93 | -1.3
O=C(Nc1cccc(Cl)c1)c1cn(-c2ccc(Cl)cc2)c(=O)c2ccccc12 | 1 | 0.32
O=C(NCCCn1ccnc1)c1cc2nc3c(c(C(F)(F)F)n2n1)CCc1ccccc1-3 | 0.86 | -0.96
COc1cccc(N2C(=O)CC(N3CCN(c4ccccc4Cl)CC3)C2=O)c1 (stereo not drawn) | 1 | 0.22
O=C(Nc1ccc(Cl)c(Cl)c1)C1CC(=O)N(c2ccccc2)C1 (stereo not drawn) | 0.91 | -1.5
COCCNC(=O)c1ccc2c(c1)N=C(C)c1c(C)ccc(C)c1S2 | 0.96 | -0.62
Cc1cc(=O)n2nc(N3CCC(C(=O)N4CCOCC4)CC3)sc2n1 | 1 | 2.1
Cn1c(C2CC(=O)N(c3ccccc3)C2)nc2ccccc21 (stereo not drawn) | 0.99 | -0.44
COc1ccc(OC)c2[nH]c(=O)c(CCNC(=O)c3ccc(C)cc3)cc12 | 1 | -0.042
CCc1ccc(N(CC(=O)NCc2cccs2)S(=O)(=O)c2c(C)noc2C)cc1 | 0.93 | -1.2
COc1ccccc1-c1c(C)[nH]n2c(=O)cc(Cc3ccccc3)nc12 | 0.94 | -0.98
O=S(=O)(c1ccccc1)N1CCN(c2ccc3nnc(-c4ccc(F)cc4)n3n2)CC1 | 1.1 | 1
CCc1ncc(C(O)(c2ccccc2)c2cc(C)ccc2C)n1C (stereo not drawn) | 0.97 | -1
CN(C(=O)Cn1nc(Cc2cccnc2)c2ccccc2c1=O)c1ccc(F)cc1 | 1 | -0.0065
CCOCCCNS(=O)(=O)c1ccc2c(c1)CCN2C(=O)C1CCC1 | 1 | 0.43

# Look-ups from the results shown.
# CCOCCCNS(=O)(=O)c1ccc2c(c1)CCN2C(=O)C1CCC1 in CBX7 AlphaScr has 1
# Cn1c(C2CC(=O)N(c3ccccc3)C2)nc2ccccc21 (stereo not drawn) in CBX7 AlphaScr has 0.99

# Continued.
SMILES | CBX7 AlphaScr | CBX7 AlphaScr z-score
CCOc1ccc2nc(N3CCCC(C(=O)NC(CC)Cc4ccccc4)C3)sc2c1 (stereo not drawn) | 1.1 | 1.5
CC1CCN(S(=O)(=O)c2ccc3ncn(CC(=O)Nc4cnc5ccccc5c4)c(=O)c3c2)CC1 | 0.96 | -0.93
O=C(NCc1cccnc1)c1ccc(C#Cc2ccccc2)o1 | 0.81 | -2.6
Cc1onc(-c2c(F)cccc2Cl)c1C(=O)Nc1ccc(OC(C)C)cc1 | 0.95 | -0.55
COc1cccc(NC(=O)CCC(=O)Nc2ccc3nc(N4CCN(C)CC4)cc(C)c3c2)c1 | 1 | 2
COCCNc1cc(C)nc2c(-c3ccc(Cl)cc3)c(C)nn12 | 1.1 | 2.6
COc1ccc(CNc2ccc3c(c2)ncn3C)cc1OC | 1 | 0.058
COc1ccc(CNC(=O)C2CCN(C(=O)c3sccc3-n3cccc3)CC2)cc1 | 0.98 | -0.5
Clc1ccc(-c2csc(Nc3ccc(Br)cc3)n2)cc1 | 0.7 | -4.9
O=C(NCCC1=CCCCC1)c1ccc2c(c1)N(Cc1ccc(F)cc1)CCS2 | 1 | 1.5
COc1ccccc1NC(=O)Cn1cc(S(=O)(=O)c2ccc(C)c(C)c2)c(=O)c2ccccc21 | 0.87 | -1.9
COc1ccc(CN2CCN(Cc3cccc(OC)c3OC)CC2)cc1 | 1 | -0.1
COc1ccc(OC)c(NC(=O)CN(C)S(=O)(=O)c2ccc3nc(C)sc3c2)c1 | 1.1 | 0.81
Clc1cccc(N2CCN(c3nnc(Cc4cccnc4)c4ccccc34)CC2)c1 | 0.92 | -3.2
COc1ccc(CN(C(=O)c2cccc(C)c2)C2CCS(=O)(=O)C2)cc1 (stereo not drawn) | 0.96 | -0.04
CCC(C(=O)NCCN1CCN(CC)CC1)n1ncc2ccccc21 (stereo not drawn) | 1.1 | 2.6
O=C(Nc1cccc(C(=O)Nc2cccc(Cl)c2)c1)NC1(c2ccccc2)CC1 | 0.84 | -2.6
Cc1cccc(OCC(=O)Nc2c(C(=O)c3ccc(Cl)cc3)oc3ccccc23)c1 | 1.1 | 0.27
Cc1nonc1N(Cc1ccc(Cl)cc1Cl)S(=O)(=O)c1ccccc1 | 1.4 | 2
COc1ccc(CCNC(=O)CCc2nnc3ccc(N4CCOCC4)nn23)c(OC)c1 | 0.98 | -0.33
CC(C)c1ccc(C2Nc3ccc4ncccc4c3C3=C2C(=O)CC(C)(C)C3)cc1 (stereo not drawn) | 1 | 1.1
CC1CCN(S(=O)(=O)c2ccc3c(c2)N(CC(=O)N(C)Cc2ccccc2)C(=O)CO3)CC1 | 0.97 | -0.74
CCN(CC)c1cc(C)c2cc(NC(=O)c3ccc(Br)c(OC)c3)ccc2n1 | 0.79 | -2.2
Cc1ccc(Cc2c(C)nc3nc(SCC(=O)NC4CCCC4)nn3c2C)cc1 | 0.98 | -0.19
O=C(COc1ccccc1)Nc1c2c(nn1-c1cccc(Cl)c1)CS(=O)(=O)C2 | 0.97 | -0.2
O=C(Nc1ccc(NC(=O)c2cc3ccccc3o2)cc1)c1cccc(Cl)c1 | 1.2 | 1.1
CCOc1ccc(OCC)c(NC(=O)C2CCN(S(=O)(=O)c3cccc4cccnc34)CC2)c1 | 1.1 | 1.4
CC1CCCCN1CCNC(=O)C1CCN(C(=O)c2cc3sccc3n2C)CC1 (stereo not drawn) | 0.99 | -0.25
COc1ccc(Cc2nnc(Nc3cc(Cl)ccc3C)[nH]c2=O)cc1 | 1.3 | 0.54
O=C(NCCN=C1NS(=O)(=O)c2ccccc21)c1ccc(Cl)c(Cl)c1 | 1.1 | 1.3
CCCOc1cccc(C(=O)Nc2ccc(Cl)c(-c3nc4ccccc4o3)c2)c1 | 1.1 | 4
Cc1cc(Cn2nnc(-c3ccc(Br)cc3)n2)cc(C)c1O | 0.99 | -0.093
Clc1ccccc1Cn1c(CNc2ccccc2)nc2ccccc21 | 0.94 | -2.2
O=C(NC1CCCCCCC1)C1c2ccccc2C(=O)N1Cc1ccc(F)cc1 (stereo not drawn) | 0.86 | -2.7
COc1cccc(-c2nnc(-c3cc(Cl)cc(Cl)c3OC)o2)c1 | 1 | 0.19
O=C(CCN1C(=O)COc2ccccc21)NCCCN1CCN(c2ccccc2F)CC1 | 1.1 | 1.6
CCC(C)NC(=O)c1ccc2c(c1)N(Cc1ccc(C)cc1)C(=O)CS2 (stereo not drawn) | 1.1 | 1.2
COc1ccc(-c2noc(-c3ccccc3Cl)n2)cc1 | 1.4 | 19
O=C(NCc1ccccc1)c1ccc2nc(N3CCOCC3)sc2c1 | 1.1 | 3.5
O=C(Nc1nnc(CCS(=O)(=O)c2ccc3ccccc3c2)s1)c1ccc(F)cc1 | 1 | -0.17
CCN(C(=O)Cc1c(C(=O)O)[nH]c2ccccc12)c1cccc(C)c1 | 1.2 | 4.8
Cc1ccccc1N1C(=O)c2ccccc2C1Nc1ccccc1F (stereo not drawn) | 0.94 | -0.77
CC1=C(C(=O)Nc2ccc(C)cn2)C(c2ccc(N(C)C)cc2)C2=C(CCCC2=O)N1 (stereo not drawn) | 0.97 | -0.37
COc1ccc(NC(=O)c2ccc(-c3nn(C)c(=O)c4ccccc34)cc2)cc1 | 1 | 0.096
Cc1cccc(CN2CCN(CC(=O)NCc3cccs3)C2=O)c1 | 0.92 | -1.6
COc1cccc(C2C(=O)N(C3CCC(C)CC3)CC(=O)N2CCC2=CCCCC2)c1OC (stereo not drawn) | 0.99 | -0.3
Oc1ccc(-c2nc3ccc(Cl)cn3c2Nc2ccc3c(c2)OCCO3)cc1 | 0.78 | -3.7
COCc1nc2ccccc2n1Cc1ccccc1Cl | 1 | 0.84
Cc1ccc(CNC(=O)c2cc(Nc3ccccc3C)nc3ccccc23)cc1 | 1 | 0.37
Cc1onc(-c2ccccc2Cl)c1C(=O)NCC1CCCO1 (stereo not drawn) | 1 | 0.18
